NPYLR7 ag – activates Aedes aegypti NPYLR7 receptor | HEK293T NPYLR7/Galpha15, GCaMP6s calcium fluorescence | activation, % at 10 µM | 270,000 compounds, 0.15% hits | AID 1259423; in the data active = activation above about 40%;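 also: 0% = vehicle and 100% = reference agonist at the receptor; some compounds past the cut are filed as inactive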
NPYLR7 ag max-min – also measured in NPYLR7 ag; calls as there; activation, %; measured here: Max-Min RFU normalised activation; some inactives read as strong as hits;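 span of the calcium signal over five minutes; 0% = vehicle and 100% = native peptide agonist; compound fluorescence can raise it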
* marks the source's active call; other numbers are inactive results; & = joins results of further samples.

canonical_smiles,NPYLR7 ag,NPYLR7 ag max-min
COc1ccc(CCOc2nc(-c3ccc(OC)cc3)n(-c3ccc(NC(=O)c4cccc(OC)c4)cc3)n2)cc1,10,13
Cc1cc(C(=O)N2CCN(C)C(C(=O)O)C2)c2cccc(C)c2n1 (stereo not drawn),2,1
CN(C)CCN(C(=O)C1COc2ccccc2O1)c1nc2cc3c(cc2s1)OCO3 (stereo not drawn),-2,-5
CN(CCCn1c(=O)oc2ccccc21)C(c1cccc(F)c1)c1cnn(C)c1 (stereo not drawn),6,2
OCCNN=C1CC(c2ccccc2)Oc2ccccc21 (stereo not drawn),4,3
COc1cccc(NS(=O)(=O)c2ccc3c(cnn3C(C)C)c2)c1,4,2
CC(N)=C(C#N)C(=O)COC(=O)c1cnccn1,-1,1
O=C(Cc1ccccc1)Nc1ccnn1C1CCN(Cc2nc3c(s2)CCCC3)CC1,8&2,5&-2
Cc1cc(C)c(C)c(S(=O)(=O)N2CCN(Cc3nc4cc(Cl)ccc4c(=O)[nH]3)CC2)c1C,6,1
CCS(=O)(=O)Oc1ccc(CNCCOC)cc1,12,10
CCCN(CCC)S(=O)(=O)c1ccc(C(=O)Nc2c3c(nn2C(C)(C)C)CSC3)cc1,-2,-2
CC1=C(C(=O)OC2CCCC2)C(c2ccccc2I)NC(=O)N1C (stereo not drawn),1,-2
CC(C)(C)c1nnc(N/N=C\c2ccc(O)cc2)[nH]c1=O,-1,-6
CN1C(=O)Cc2cc(-c3csc(NC4CCCC4)n3)ccc21,8,7
CC1(C)CC(=O)CC(=NN2CCOCC2)C1,0,-3
CN(Cc1nc2ccccc2[nH]1)C(=O)CCNC(=O)c1ccc(F)cc1,-1,-4
CCCC1(NC(=O)c2cncc(Cl)c2)CC1,1,2
CC(Nc1ncccc1C#N)c1ccccc1OC(F)F (stereo not drawn),-1,-3
CCNC(=O)N(CCOC)Cc1c(-c2ccccc2)noc1N1CCSCC1,7,10
O=C1CCc2cc(-c3csc(=Nc4ccccc4)n3CCc3c[nH]c4ccccc34)ccc2N1,-5,-11
CCOc1ccc(-c2cc(C(=O)NCc3c(C)cc(Cl)cc3Cl)c3ccccc3n2)cc1,8,5
COc1cc(OC)cc(C(=O)N2CCN(c3nc4nccc(-c5ccc(Cl)c(Cl)c5)n4n3)CC2)c1,5,3
O=C(c1ccccn1)N1CCc2cc(S(=O)(=O)N3CCCC3)ccc21,-4,3
CN=c1scc(-c2cccs2)n1N=Cc1ccco1,-3,-7
COC(=O)c1c(NC(=O)CSc2nnc(N)s2)sc2c1CCC2,8,6
COc1ccc(-c2cn3nc(SCC(=O)Nc4cccc(C)c4C)ccc3n2)cc1,3,2
O=C(Cc1cccnc1)N1CCOC(Cc2cccc(C(F)(F)F)c2)C1 (stereo not drawn),15,6
COc1ccc(-c2nnc(SCC(=O)N/N=C\c3ccccn3)n2-c2ccccc2)cc1OC,-12,-15
Cc1ccc2sc(N(CCCN(C)C)C(=O)CN3C(=O)c4ccccc4C3=O)nc2c1C,3,2
Cc1ccc(OCCOc2cccc3cccnc23)c(I)c1,3,0
Cn1ccsc1=NC(=O)CNC(=O)Cc1cccc2ccccc12,-8,-7
COc1cc(C)ccc1S(=O)(=O)Nc1ccccc1C(=O)Nc1cccc(C)c1,-4,6
NC(=O)CNC(=O)C1=C[C@@H](Oc2cc(F)ccc2Br)[C@H](O)[C@H](O)C1,-6,-16
N#CCc1nc(-c2cc3cc(Br)cc(Br)c3oc2=O)cs1,3,2
O=C(c1ccc(Cl)cc1)N1N=C(C(F)(F)F)CC1(O)c1ccncc1 (stereo not drawn),0,-1
CCCC(=O)N1CCCC1(C)C(=O)Nc1ccc2c(c1)CCN2C(C)=O (stereo not drawn),8,4

A few values from above:
NPYLR7 ag max-min, N#CCc1nc(-c2cc3cc(Br)cc(Br)c3oc2=O)cs1 → 2
NPYLR7 ag, NC(=O)CNC(=O)C1=C[C@@H](Oc2cc(F)ccc2Br)[C@H](O)[C@H](O)C1 → -6
NPYLR7 ag, COc1ccc(-c2nnc(SCC(=O)N/N=C\c3ccccn3)n2-c2ccccc2)cc1OC → -12
NPYLR7 ag, O=C(Cc1cccnc1)N1CCOC(Cc2cccc(C(F)(F)F)c2)C1 (stereo not drawn) → 15
NPYLR7 ag, Cc1ccc2sc(N(CCCN(C)C)C(=O)CN3C(=O)c4ccccc4C3=O)nc2c1C → 3
NPYLR7 ag, CCCC(=O)N1CCCC1(C)C(=O)Nc1ccc2c(c1)CCN2C(C)=O (stereo not drawn) → 8

Next section.
canonical_smiles,NPYLR7 ag,NPYLR7 ag max-min
O=c1c2cc(Cl)ccc2nc(-c2cccc3ccccc23)n1Cc1ccccc1,20,12
COc1ccc(N2CCN(C(=O)C3CCCCC3C(=O)NCCNc3cccc4ccccc34)CC2)cc1 (stereo not drawn),-7,-15
COc1ccc(Cn2ccc3c(cnc4nc(-c5ccncc5)nn43)c2=O)cc1,1,5
CCN(CC)CCCC(C)NC(=O)c1cc(-c2cccc(OC)c2)n2nc(C(C)(C)C)cc2n1 (stereo not drawn),-3,-2
CNc1cc(C(=O)N2CCCN(Cc3ccc(F)cc3)C(C(C)C)C2)ccn1 (stereo not drawn),-6,-7
Cc1nc2ccc(C(=O)N(C)CCN(C)C)cn2c1N(C)C=O,3,22
Cc1ccc(-n2cc(CN3CCN(C)CC3)c(-c3ccc(F)cc3)n2)cc1,17,8
CCCc1cnc(C)nc1-c1cccc(CN2CCOCC2)c1,1,1
COc1ccc(N2C(=O)/C(=C/c3ccc(OCC(=O)O)c(OC)c3)C(=O)NC2=S)cc1,-9,-16
COc1ccc(CCN2CC(NC(=O)CNC(C)=O)CC2=O)cc1 (stereo not drawn),1,-3
CCOC(=O)C1CCN(C(=O)c2coc(CN(CCc3c[nH]c4ccccc34)Cc3ccc(OCC)cc3)n2)CC1,11,8
CCOC(=O)CNc1c(-c2ccccc2Cl)nc2ccc(Br)cn12,-9,-7
COc1ccc(NC(=O)c2cn(Cc3ccccc3)nc2OCc2ccccc2)cc1,14,4
CCc1ccc(CN(C)CC(=O)NN2C(=O)NC3(CCCCC3)C2=O)cc1,11,4
CCn1nc(C(C)C)cc1C(=O)NC(C)c1cnn(-c2ccccc2C)c1C (stereo not drawn),0,-7
COc1nc(OC)nc(N2CCC3(CC2)CN(C)CCN3C)n1,16,8
COc1ccc(-c2cc(C(=O)N3CCN(Cc4ccccc4)CC3)n3nc(-c4ccc(Cl)cc4)cc3n2)cc1,5,5
CN(C)CC1(O)CCCN(C(=O)CCn2cc(Cl)cn2)C1 (stereo not drawn),-3,-7
C=CCn1c(C)cc(C2=NNC(=Nc3ccccc3)SC2)c1C,-3,-1
COc1cccc(NC(=O)Nc2cccc(-n3nc(OCC(C)C)nc3-c3cccc(F)c3)c2)c1,-1,7
Cc1onc2c(=O)n(CC(=O)C(C)(C)C)nc(-c3ccccc3)c12,9,9
Fc1ccccc1Nc1nc2nonc2nc1N1CCOCC1,-12,-21
CCOC(=O)C1(Cc2ccccc2C(F)(F)F)CCN(C(=O)CN2CCCC2=O)CC1,-2,-9
CCCCCn1nc(C(=O)NNC(=O)C2CCCC2)c2ccccc2c1=O,6,8
CC(C)c1cc(N2CCOCC2)nc(SCc2ccc(C(=O)NCc3ccccn3)o2)n1,12,8
O=C(NCc1ccccn1)c1cc2n(n1)CCN(Cc1ccc(Cl)cc1)C2=O,19,23
CCCc1nc(N2CCN(C(=O)C3CCCCC3)CC2)c2cnn(-c3ccccc3)c2n1,9,9
Oc1oc(-c2cccc3ccccc23)nc1C=Nc1nccs1,-1,-5
NC(=O)NC(=O)CSc1c(Cl)cccc1Cl,5,3
CCc1nc2ccc(C(=O)N3CCN(C(=O)c4ccco4)CC3)cn2c1N(C)C(=O)Nc1ccccc1OC,-4,-9
COc1ccc(-c2cc(CNC(=O)/C=C\c3cc(OC)c(OC)c(OC)c3)no2)cc1,1,0
COc1ccc(OC)c(NC(=O)c2cnc3cc(C)ccn3c2=O)c1,1,21
CC(CS(=O)(=O)CC(C)N1CCCCC1)N1CCCCC1 (stereo not drawn),4,2
CCCOc1ccc(C=C2N=C(c3ccc(OC)c(OC)c3)OC2=O)cc1OC,0,4
CN(C)C1(CNC(=O)c2ccc[nH]c2=O)Cc2ccccc2C1,7,2
Cc1nc(-c2cccc(F)c2)nc(N2CCN(C(=O)C3CCC3)CC2)c1C,26,22
COCCN=c1scc(-c2ccccc2)n1N=C1CCc2ccccc21,9,10
CCCc1cc(CNC(=O)c2cn3cc(Cl)ccc3n2)on1,0,-1
CNC(=O)c1cccc(NC(=O)CC2(C)N=C(c3ccc(C(C)C)cc3)N(C)O2)c1 (stereo not drawn),6,5
CCS(=O)(=O)c1ccc2oc(-c3cc(NC(=O)c4ccccc4OC)ccc3Cl)nc2c1,7,12
O=C(NCCN1CCCC1)[C@@]1(OCc2ccccc2F)CC(OCc2cccc(OC(F)(F)F)c2)[C@H](O)[C@H](O)C1 (stereo partly drawn),4,14
Cn1c(=O)c2c(SCc3cccc([N+](=O)[O-])c3)nc(C3CCCCC3)nc2n(C)c1=O,-3,-7
CCc1ccc(S(=O)(=O)Nc2ccc(Nc3ccc(-n4cccn4)nn3)cc2)cc1,-3,-11
Cc1nccc(-c2cccc(NC(=O)c3ccccc3F)c2)n1,-24,-30
O=c1cc(CN2CCN(S(=O)(=O)c3ccc4ccccc4c3)CC2)c2cc3c(cc2o1)CCC3,-8,-11
CCOC(=O)c1cc(-c2cccc(NC(=O)[C@@H]3C[C@H]3c3ccccc3)c2)n(-c2ccccc2C)n1,29,12
CN(Cc1ccccc1)c1cc(Cl)nc(SCc2cccc(C(=O)NCCN3CCCCC3)c2)n1,-5,-3
CC(c1cccc(-c2cc(N3CCOCC3)nc(N)n2)c1)N1CCCC1 (stereo not drawn),18,7
Cc1ccc(C(=O)N2CCc3nc(-c4ccccc4F)[nH]c(=O)c3C2)cc1,22,22
CCN(CC)S(=O)(=O)c1ccc(NN=C(C)c2ccc[nH]2)nc1,-1,32
COc1ccc(-c2cccc(-c3cccc(NC(=O)C(Cl)(Cl)Cl)c3)n2)cc1,-6,-9
Cc1c(C(=O)NCC(C)C)c(C(F)(F)F)nn1C1CCCN(C)C1 (stereo not drawn),0,-2
Cc1ccc(C(=O)N2CCN(C(=O)NCCNC(=O)C3CC3)CC2)s1,-4,-6
CC(NC(=O)NCC1(C)CCCS1)c1csc(C2CC2)n1 (stereo not drawn),-2,-2
Cc1nc2sccn2c(=O)c1NC(=O)c1ccc(S(N)(=O)=O)cc1,18,11
CC(=O)NCC(=O)N1CCN(Cc2ccc(-c3noc(CC(C)C)n3)cc2)CC1,32,20
CC1(C(=O)NS(=O)(=O)c2ccccc2C(F)(F)F)CCN1C(=O)CC1CCCC1 (stereo not drawn),8,5
Cc1cccc(Cl)c1NC(=O)N1CC(=O)N2CCc3c(F)cccc3C2C1 (stereo not drawn),32,16
O=C(C1CCCCC1)N(Cc1cccnc1)c1nc2c(F)cccc2s1,-9,-9
CCc1nc2ccc(C(=O)NCc3ccc(OC)cc3)cn2c1N(C)C=O,7,19

Going on with the list:
canonical_smiles,NPYLR7 ag,NPYLR7 ag max-min
CCOC(=O)CCc1c(C)nc2ncnn2c1N1CCN(S(=O)(=O)c2ccccc2C(F)(F)F)CC1,29,14
CC(OCC1CC1)C(=O)NCC1(C)CCCS1 (stereo not drawn),-1,-7
O=C1C(C(c2cccs2)N2CCC3(CC2)OCCO3)Sc2nc(-c3ccco3)nn21 (stereo not drawn),0,1
CC(C)(C(=O)NCc1ccccn1)c1ccccc1,1,0
COc1ccc(CCN(C)C(=O)c2csc(CSc3nnc(-c4ccccc4Cl)n3-c3ccc(C)cc3)n2)cc1OC,20,15
O=C(c1cc(F)cc2c1OCOC2)N1CCOC(COCc2cccc(C(F)(F)F)c2)C1 (stereo not drawn),33,29
CCOc1ccccc1-c1nc(CN(C)Cc2cccc(-n3nc(C)cc3C)c2)c(C)o1,1,-3
Cc1cccc(C(N)=NOC(=O)CCC2CCCCC2)c1,16,13
Clc1ccc(C2CC(c3cccc4ccccc34)n3ncnc3N2)cc1 (stereo not drawn),12,10
Cc1ccc(Oc2cnn(-c3cccc(Cl)c3)c(=O)c2Nc2cccc(C(=O)NCc3cccnc3)c2)cc1C,10,7
O=C(CCCC(=O)NCc1ccco1)NCc1ccoc1,2,9
OCC(F)(F)C(F)(F)C(F)(F)C(F)(F)CO,-12,-17

Of the compounds above, these contain a tert-butyl group.
canonical_smiles,NPYLR7 ag,NPYLR7 ag max-min
CCCN(CCC)S(=O)(=O)c1ccc(C(=O)Nc2c3c(nn2C(C)(C)C)CSC3)cc1,-2,-2
CC(C)(C)c1nnc(N/N=C\c2ccc(O)cc2)[nH]c1=O,-1,-6
CCN(CC)CCCC(C)NC(=O)c1cc(-c2cccc(OC)c2)n2nc(C(C)(C)C)cc2n1 (stereo not drawn),-3,-2
Cc1onc2c(=O)n(CC(=O)C(C)(C)C)nc(-c3ccccc3)c12,9,9

The list continues.
canonical_smiles,NPYLR7 ag,NPYLR7 ag max-min
Nc1cc(=O)[nH]c(SCCOc2c(Cl)cccc2Cl)n1,6,8
Cc1nc(C(F)(F)F)ccc1C(=O)OCC(=O)Nc1cc(C(C)C)no1,-4,-1
O=C(c1ccccc1OC1CCN(Cc2cccc(F)c2F)CC1)N1CCCC1,10,7
CCOC(=O)[C@@H]1CN(C(=O)N2CCOCC2)[C@H]2c3cccc(F)c3O[C@@H]12,2,1
Cc1csc(NC(=O)NC2CC(=O)N(c3ccc(F)cc3)C2)n1 (stereo not drawn),2,0
CC(=O)c1ccc(NC(=O)c2ccc(OCc3noc(C)n3)cc2)cc1,-7,-7
CC(C)CN(CC(=O)Nc1nc(CC(=O)Nc2ccccc2F)cs1)C(=O)c1ccc(Cl)cc1,17,20
O=C(C(C(F)(F)F)C(F)(F)F)N1CCCCC1,5,0
CCCCN(CC(=O)Nc1cc(-c2ccccc2)nn1-c1ccccc1Cl)C(=O)c1ccc(C)c([N+](=O)[O-])c1,9,10

The list is partial; rates above refer to the full screens.
